# Mtb bLac sens: beta-lactam sensitization of Mtb H37Rv. M. tuberculosis H37Rv growth with meropenem, percent inhibition; hits of this screen are not shown here. inhibition, % at 25 µM. 0.27% of 330,000 active. AID 434955;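 active means about 74% or more and at least 40 points above the plate without the antibiotic, then above 30% in a dose series; inconclusive means first-round hits that could not be retested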;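 further: growth measured after seven days incubation then overnight dye step; 0% = bacteria only wells and 100% = bacteria with antibiotic; twin plates without the antibiotic show which effects depend on it; some results filed as inactive read as strong as hits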
# Arbovirus anti: arbovirus infection inhibition. AID 1251. arbovirus infection cell-based antiviral screen. inhibition, % at 10 µM. 0.37% of 200,000 active;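 active means inhibition from about 30%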;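 further: bluetongue infection of BSR cells; cell survival read as ATP light after 72 h; 0% = infected wells without compound and 100% = uninfected wells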
# RecA splice inh: inhibitors of M. tuberculosis RecA intein splicing; P9WHJ3; cell-free RecA intein splicing, fluorescence; inhibition, %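 (about 9 µM by stock and volumes)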; 0.75% of 290,000 active; AID 2221; in the data active means inhibition above about 30%; inconclusive means no clear call, values can overlap the other calls;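 further: 0% = vehicle wells and 100% = reference inhibitor control wells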
# Target sequence (P9WHJ3 whole entry, looked up, canonical isoform): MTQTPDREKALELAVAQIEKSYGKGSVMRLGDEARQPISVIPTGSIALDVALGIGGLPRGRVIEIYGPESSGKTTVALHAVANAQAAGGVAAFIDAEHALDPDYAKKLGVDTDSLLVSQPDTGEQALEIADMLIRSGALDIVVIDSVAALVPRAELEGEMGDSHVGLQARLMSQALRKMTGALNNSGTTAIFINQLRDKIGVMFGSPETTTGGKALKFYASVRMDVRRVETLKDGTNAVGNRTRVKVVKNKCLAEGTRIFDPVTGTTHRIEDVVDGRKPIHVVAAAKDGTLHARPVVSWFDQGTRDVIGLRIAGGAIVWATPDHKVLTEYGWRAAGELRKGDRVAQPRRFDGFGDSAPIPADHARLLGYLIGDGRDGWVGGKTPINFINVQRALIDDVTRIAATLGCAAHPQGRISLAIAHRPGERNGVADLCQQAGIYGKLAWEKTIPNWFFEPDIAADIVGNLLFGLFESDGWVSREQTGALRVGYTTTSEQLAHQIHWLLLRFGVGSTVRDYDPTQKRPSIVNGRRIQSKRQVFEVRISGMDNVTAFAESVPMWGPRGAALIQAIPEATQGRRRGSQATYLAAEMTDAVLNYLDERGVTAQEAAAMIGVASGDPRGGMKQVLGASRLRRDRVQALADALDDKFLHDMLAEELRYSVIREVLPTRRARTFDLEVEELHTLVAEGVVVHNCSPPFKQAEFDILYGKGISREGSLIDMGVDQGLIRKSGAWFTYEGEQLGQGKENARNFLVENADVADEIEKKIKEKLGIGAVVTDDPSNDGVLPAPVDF
# Mtb growth: M. tuberculosis H37Rv growth inhibitors, H37Rv strain (AID 1626) | M. tuberculosis H37Rv growth inhibition; higher % means a stronger effect | inhibition, % at 10 µM, or IC50 in µM where a hit was titrated | 0.95% of 220,000 active;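 active means confirmed in a dose series; inconclusive means inhibition above 80% but not taken into the dose series; inactive means below 80% or under 30% at every dose of the series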;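 further: bacteria incubated seven days before Alamar blue readout; 0% = bacteria only wells and 100% = bacteria with antibiotic wells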
# YopH PTP inh: inhibitors of Yersinia enterocolitica YopH tyrosine phosphatase. fluorescence Ex485/Em525. 0.16% of 140,000 active. inhibition, %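 (about 10 µM by stock and volumes)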;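 active means inhibition of 50% or more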;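 further: controls were vehicle for no effect and minimum signal wells for full effect; inactives centre near -20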
# Arbovirus anti repeat: further read-out of Arbovirus anti, marked with its call; inhibition, %; measured here: 10K subset replicate screen; many hits read low in the repeat;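 first of two repeat runs on a subset; 0% = infected and 100% = uninfected wells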
# Active calls of the source: *; ? = inconclusive; nt = not tested or not shown. A portion of the library; the hit share may differ from the screen's.
SMILES,Mtb bLac sens,Arbovirus anti,RecA splice inh,Mtb growth,YopH PTP inh,others
COc1cc(/C=N/NC(=O)COc2ccc(Cl)cc2)ccc1OS(=O)(=O)c1ccc(C)cc1,-1,-23,1.8,7%,-10,
O=C(c1ccccc1)C1NC1c1ccccc1 (stereo not given),-3,nt,1.5,3%,nt,
O=c1c(-c2ccnn2-c2ccc(F)cc2)cnc2n1CCS2,-4,3,1.1,-6%,-20,
COCCOC(=O)CSc1ncccc1-c1nc2cc(C)c(C)cc2[nH]1,-4,2,-2.9,14%,nt,
CC(C)c1c(C(=O)N/N=C/C=C/c2ccccc2)nnn1-c1nonc1N,2,nt,-1.8,nt,nt,
CC(=O)OCc1c(C(F)(F)F)nn(C)c1Oc1cccc(C(F)(F)F)c1,-11,-2,-0.5,4%,-30,
O=[N+]([O-])c1ccc2nc(-c3ccncc3)[nH]c2c1,-2,nt,3.6,-4%,nt,
COc1cccc(N2C(=O)NC(=O)/C(=C/c3ccc([N+](=O)[O-])s3)C2=O)c1,100,nt,-1.0,-1%,nt,
COc1ccc(C2CC3(CC(C)(C)NC(=S)N3)Oc3cc(O)cc(C)c32)cc1 (stereo not given),-2,-14,1.6,6%,-10,
COc1ccccc1Cc1nc(-c2ccncc2)no1,2,5,2.8,8%,nt,
CCN(CC)S(=O)(=O)c1ccc(NC(=O)CSc2nnc(-c3ccc(F)cc3)o2)cc1,11,-5,0.3,25%,-30,
CC1=CC(C)(C)N2C(=O)C3(N=C(N)NC(Nc4ccccc4)=N3)c3cc(C)cc1c32 (stereo not given),0,-15,9.0,14%,-36,
N#Cc1c(-c2ccccc2)nc(SCC(=O)Nc2ccccc2F)[nH]c1=O,-10,9,nt,-11%,-33,
CC1(c2nnc(-c3cccc(Cl)c3)o2)CC(c2cccc([N+](=O)[O-])c2)=NO1 (stereo not given),7,nt,20,nt,nt,
COc1ccccc1N1CCN(C(=S)Nc2ccc3nc(N4CCOCC4)cc(C)c3c2)CC1,77,-21,-2.2,16%,nt,
CNS(=O)(=O)c1ccc(OC)c(-c2nnc3c4ccccc4c(C)nn23)c1,-3,-4,-0.4,-1%,0,
C=CCn1c(=O)c(C(=O)Nc2ccccc2C(=O)OCC)c(O)c2ccccc21,3,-15,4.5,7%,4,
CCn1cc(C(=O)N2CCc3ccccc3C2)c(=O)c2cc(S(=O)(=O)N3CCCCC3)ccc21,-6,-2,-2.4,8%,-11,
O=C(Cc1ccccc1)NC(=S)Nc1cc(C(F)(F)F)ccc1Cl,6,2,-1.1,2%,-29,
CCOc1ccc(N/C=C/C(=O)c2ccccc2)c([N+](=O)[O-])c1,?,6,0.6,nt,-22,
O=C(O)c1ccc(N/N=C/c2cc(Br)cs2)cc1,12,nt,-4.1,nt,nt,
Cc1ccc(S(=O)(=O)N2CCC(=O)N2)cc1,-4,5,nt,-9%,11,
O=C(NCC1CCCN(C(=O)c2cc(Cl)ccc2F)C1)c1ccc(F)cc1 (stereo not given),-9,nt,-1.5,nt,nt,
COCC(=O)N(Cc1cc2cc(OC)ccc2[nH]c1=O)c1ccccc1OC,-5,3,0.4,-5%,-18,
NC(=O)c1sc2nc3c(c(-c4ccco4)c2c1N)CCC3,2,13,6.7,0%,3,

# Next entries:
SMILES,Mtb bLac sens,Arbovirus anti,RecA splice inh,Mtb growth,YopH PTP inh,others
Cc1nc(N)sc1C(=O)N1N=N1,-5,nt,-1.1,4%,nt,
COc1cc(CN2CCC(C(=O)N3CCCC(C)C3)CC2)cc(OC)c1O (stereo not given),4,5,-3.8,-7%,-27,
CN(C)C(=O)CSc1nnc(CCN)o1,-5,2,-0.9,-4%,-45,
Cc1ccc(NC(=O)c2ccc(OCC3CCCO3)cc2)cc1 (stereo not given),12,2,-4.7,46%,-27,
COc1ccc(S(=O)(=O)N2CCC(C(=O)NCc3cccs3)CC2)cc1,-3,-2,0.8,-1%,nt,
O=C(/C=C/c1ccco1)Nc1ccccc1C(=O)O,1,26,-1.5,-2%,nt,
COc1ccc(-c2nnc(SCC(=O)N(Cc3ccccc3)C(C)(C)C)o2)cc1OC,-2,5,0.9,21%,-8,
C=CCn1cccc(C(=O)Nc2ccc(C)cc2)c1=O,7,nt,0.5,nt,nt,
O=C(/C=C/Nc1ccc([N+](=O)[O-])cc1)c1ccc(Br)cc1,-1,-16,-1.8,0%,-16,
O=C(N/N=C/c1ccc([N+](=O)[O-])cc1)c1cc(-c2ccc3c(c2)OCO3)n[nH]1,92,nt,-0.3,-8%,nt,
CC1=NN(Cc2c(C)nn(Cc3ccccc3)c2C)C(C)(C)C1,-2,1,-3.4,2%,nt,
NS(=O)(=O)c1ccc(N=Nc2c(=O)[nH]n3c(=O)c4c([nH]c23)CCCC4)cc1,-8,-5,7.8,3%,nt,
C=CCNC(=S)Nc1sc2c(c1C#N)CCCC2,-7,-2,3.3,-1%,nt,
Cc1csc(SCC(=O)NC(C)c2ccccc2)n1 (stereo not given),35,-1,0.9,2%,nt,
COc1cc(CNc2ccc(C)c(C)c2)cc(OC)c1OC,16,-18,2.1,-4%,-14,
CCO[C@@H]1OC(C(=O)N2CCN(Cc3ccccc3)CC2)=C[C@H](c2ccc(Br)cc2)[C@H]1CCCO,9,-12,8.9,8%,nt,
c1ccc2c(c1)Nc1cc3ccccc3cc1S2,29,nt,2.8,-5%,nt,
CCc1ccc2c(c1)C(=O)C(=O)N2CCS(=O)(=O)c1ccccc1,?,nt,-0.8,nt,nt,
COCCn1c(SCC(=O)Nc2ccc(C)cc2C)nc2c(oc3ccccc32)c1=O,53,-5,-1.7,-3%,-12,
CCN(CC)CC(=O)c1c[nH]c2ccccc12,-9,2,1.3,-2%,-17,
O=C(CSc1ccc2nnc(CCNC(=O)c3ccccc3)n2n1)Nc1ccccc1,-4,2,-0.1,6%,nt,
CCC1CN(C(=O)N2CCC(C(=O)NCc3ccccc3OC)CC2)c2cc(C)ccc2O1 (stereo not given),6,nt,-3.4,nt,nt,
COC(=O)c1cccc(C(=O)N2CCCC(C(=O)c3ccccc3OC)C2)c1 (stereo not given),-1,nt,-3.7,nt,nt,
COC(=O)c1c(NC(NC(C)=O)C(Cl)(Cl)Cl)sc2c1CCCC2 (stereo not given),-2,8,6.8,5%,-3,
COc1ccc(S(=O)(=O)N2CCCC2c2cccs2)cc1 (stereo not given),-11,nt,3.8,-7%,nt,

# The list goes on:
SMILES,Mtb bLac sens,Arbovirus anti,RecA splice inh,Mtb growth,YopH PTP inh,others
Cn1cc(CCNC(=O)CC2C(=O)NCCN2Cc2cccc(Oc3ccccc3)c2)cn1 (stereo not given),4,0,1.6,21%,nt,
Cc1cccc(OCC(=O)Nc2ccc(N3CCN(S(C)(=O)=O)CC3)cc2)c1,?,2,5.9,nt,-40,
CCc1ccc(OCC(=O)NC(NC(=S)Nc2ccccc2OC)C(Cl)(Cl)Cl)cc1 (stereo not given),2,-4,-0.6,2%,-32,
C/C(=N\O)C(=O)Nc1ccccc1,11,nt,-1.7,-12%,nt,
O=C(CNC1CCCCC1)Nc1ccc(S(=O)(=O)N2CCCCC2)cc1,-5,nt,-0.9,nt,nt,
CC(NC(=O)C1CCN(S(=O)(=O)c2cccc3nonc23)CC1)c1ccccc1 (stereo not given),-3,nt,1.8,nt,nt,
Nc1nncn1C(=O)c1ccccc1Cl,7,10,0.6,3%,7,
CCOC(=O)c1sc(NC(=O)CCN2CC(C)OC(C)C2)c(C(=O)OCC)c1C (stereo not given),12,-1,4.9,nt,-16,
c1ccc2c(C3=NNC(=NC4CCCCC4)SC3)c[nH]c2c1,97,-8,9.2,8%,-3,
CCc1nnc(NS(=O)(=O)c2ccc(NC(=S)NC(=O)/C=C/c3ccc([N+](=O)[O-])cc3)cc2)s1,-4,nt,1.0,0%,nt,
CCCc1nc(SC2CCCC2)c2c(=O)n(C)c(=O)n(C)c2n1,3,-40,3.8,20%,-38,
O=C(Nc1ccccc1)c1ccc(OC(=O)c2ccccc2)cc1,3,nt,-3.1,nt,nt,
O=C(CN1C(=O)S/C(=C/c2cc(Br)cs2)C1=O)N1CCOCC1,10,-10,-1.2,-4%,-14,
O=C(NCC(=O)N(Cc1cccs1)C(C(=O)NC1CCCCC1)c1ccco1)c1cccs1 (stereo not given),-6,2,-1.8,-2%,-18,
O=C(CSc1nnc2c(n1)[nH]c1ccc(F)cc12)OCc1ccccc1,?,5,0.9,10%,-17,
CCCCc1nnc(SCc2ccc(OCC)cc2)n1N,-9,2,-0.1,3%,-41,
COc1ccc(/C=N/NC(=O)c2[nH]c3ccc(C)cc3c2-c2ccccc2)c(C(=O)O)c1OC,95,nt,2.4,nt,nt,
CCCn1nnnc1NCc1ccc(Cl)cc1Cl,-12,-1,4.6,0%,nt,
COc1ccc(C(=O)OCC(=O)NC(=O)NC2CCCC2)c(O)c1,-3,12,7.9,7%,nt,
Cc1ccc(C(=O)OCC(=O)NNC(=O)c2cccs2)c(O)c1,-10,nt,-1.4,nt,nt,
Cc1ccc(S(=O)(=O)n2cccc2C)cc1,-3,nt,-5.4,nt,nt,
O=C(O)CN(c1ccccc1)S(=O)(=O)c1cc(C(F)(F)F)cc(C(F)(F)F)c1,-4,8,-1.7,nt,nt,
Cn1c(=O)c2c(nc(Sc3nc4ccccc4n3CC(=O)N3CCCCC3)n2C)n(C)c1=O,-12,10,2.3,1%,-32,
CC(=O)c1ccc(Nc2ccc([N+](=O)[O-])c3nonc23)cc1,98,nt,-1.9,nt,nt,
O=C1c2oc3ccccc3c(=O)c2C(c2cccc(O)c2)N1CCCN1CCOCC1 (stereo not given),?,7,1.1,-9%,-16,Arbovirus anti repeat=7

# (further entries)
SMILES,Mtb bLac sens,Arbovirus anti,RecA splice inh,Mtb growth,YopH PTP inh,others
CC(C)CCNC(=O)c1ccc2c(SCC(=O)O)c3c(nc2c1)CCC3,3,nt,0.2,-6%,nt,
CCCc1nnc(NC(=O)CCC(=O)Nc2ccc(Cl)cc2)s1,0,nt,-0.5,nt,nt,
Cc1ccc(-c2csc(C3=C(O)CN(NC(=O)c4ccc([N+](=O)[O-])cc4)C3=N)n2)cc1,2,-1,7.7,1%,nt,
CCC(=O)Nc1ccc(OCc2nc3ccccc3s2)cc1,1,8,-1.7,25%,nt,
COc1ccc(C(=O)NCc2nc3ccccc3[nH]2)cc1OC,1,6,7.9,0%,-19,Arbovirus anti repeat=1
O=C(Cn1cc2c(n1)CCCC2)N1CCc2ccccc21,2,-3,0.5,-2%,-23,Arbovirus anti repeat=7
O=C1OCc2ccc(NC(=O)c3sccc3Cl)cc21,-7,nt,-1.6,1%,nt,
COc1ccc(-c2nn(-c3ccccc3)cc2C(=O)n2nnc3ccccc32)cc1,36,-20,0.5,9%,-18,
O=C1/C(=C\c2cc(Cl)c(O)c(Cl)c2)SC(=S)N1Cc1ccccc1,-2,nt,23,nt,nt,
O=C(NCc1ccccc1C(F)(F)F)C1CC(O)CN1C(=O)Nc1ccccc1 (stereo not given),0,nt,-1.3,nt,nt,
CN(C)Cc1ccc(F)cc1Sc1ccc(Cl)cc1Cl,?,12,4.3,8%,-6,
COc1cc(C(=O)Nc2nc(C)cc(C)n2)cc(OC)c1OC,-2,nt,-1.0,-15%,nt,
COc1cccc(C(=O)Nc2ccc(S(=O)(=O)Nc3nccc(C)n3)cc2)c1,17,8,0.5,-11%,-33,
CCOC(=O)/C(=N\Nc1ccc(Br)cc1)N1CC(C)OC(C)C1 (stereo not given),96,nt,-2.4,?,nt,
Cc1ccc2oc(C(=O)N(Cc3nccn3C)C(C)C)c(C)c2c1,0,nt,-2.1,nt,nt,
CCOc1ccc(CCn2c(-c3ccco3)nc3ccccc3c2=O)cc1OCC,73,-11,5.5,-5%,0,
COC(=O)c1cc2c(=O)c3ccccc3oc2nc1C,7,nt,-0.2,nt,nt,
O=C(NC1CCCCC1)NC1C2CC3CC(C2)CC1C3 (stereo not given),6,nt,-3.0,nt,nt,
O=C(NCCC1=CCCCC1)c1cc(S(=O)(=O)N2CCCCC2)ccc1Cl,1,nt,-3.7,nt,nt,
CC1CN(CC(=O)Nc2cc(S(=O)(=O)N3CCCC3)ccc2Cl)CC(C)O1 (stereo not given),-12,14,-6.1,5%,nt,
CCCCc1ccc(NC(=O)OC)cc1,44,-5,1.5,58%,-28,Arbovirus anti repeat=-1

# Compounds from the list above that contain a COOH group:
SMILES,Mtb bLac sens,Arbovirus anti,RecA splice inh,Mtb growth,YopH PTP inh,others
O=C(O)c1ccc(N/N=C/c2cc(Br)cs2)cc1,12,nt,-4.1,nt,nt,
O=C(/C=C/c1ccco1)Nc1ccccc1C(=O)O,1,26,-1.5,-2%,nt,
COc1ccc(/C=N/NC(=O)c2[nH]c3ccc(C)cc3c2-c2ccccc2)c(C(=O)O)c1OC,95,nt,2.4,nt,nt,
O=C(O)CN(c1ccccc1)S(=O)(=O)c1cc(C(F)(F)F)cc(C(F)(F)F)c1,-4,8,-1.7,nt,nt,
CC(C)CCNC(=O)c1ccc2c(SCC(=O)O)c3c(nc2c1)CCC3,3,nt,0.2,-6%,nt,
